Screening data from PubChem BioAssay.
GIRK2 activ = GIRK2 channel activation; HEK293-GIRK2 thallium flux, Thallos fluorescence; P48051; 63,000 tested, 0.05% active; calls only for hits at 25 µM;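 active = among the strongest 0.2% of first-round signals and kept after retests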;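 note: first round at about 10 µM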
Target sequence (P48051 whole entry, looked up): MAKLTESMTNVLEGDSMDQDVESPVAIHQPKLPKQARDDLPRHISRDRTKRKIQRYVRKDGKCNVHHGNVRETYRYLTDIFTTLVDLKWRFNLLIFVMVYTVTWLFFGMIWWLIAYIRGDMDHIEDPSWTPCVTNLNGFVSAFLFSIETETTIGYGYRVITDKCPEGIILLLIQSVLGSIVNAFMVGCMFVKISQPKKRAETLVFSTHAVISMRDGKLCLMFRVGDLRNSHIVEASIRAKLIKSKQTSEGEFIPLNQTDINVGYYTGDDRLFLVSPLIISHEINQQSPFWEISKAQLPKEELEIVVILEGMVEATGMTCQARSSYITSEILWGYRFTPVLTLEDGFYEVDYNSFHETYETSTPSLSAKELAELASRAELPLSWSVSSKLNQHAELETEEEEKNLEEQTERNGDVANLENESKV
Calls only; i = inactive.

GIRK2 activ,canonical_smiles
i,COc1ccc(C(O)CN2CCN(C3CCCCC3)CC2)cc1 (configuration not stated)
i,O=C(NCc1ccc(F)cc1)c1ccc(Oc2nccnc2N2CCSCC2)cc1
i,Cc1cn2c3c(=O)[nH]c(=O)n(C)c3nc2n1CCCN1CCN(c2ccccc2F)CC1
i,O=C(OC1CN(c2nc3ccc(F)cc3s2)C1)C1CCC1
i,C=CCn1c(SCC(=O)NCC2CCCO2)nc2scc(-c3ccc(OC)cc3)c2c1=O (configuration not stated)
i,COc1ccccc1-c1cc(/C=C2\C(=O)Nc3ncc(Br)cc32)cc(Br)c1O
i,CCN1CCc2c(sc(NC(=O)/C=C\c3ccccc3)c2-c2nc3ccccc3s2)C1
i,COc1cc(NC(=O)CCC(=O)O)c2ncccc2c1
i,Cc1cc(S(=O)(=O)N2CCc3ccccc3C2)cc([N+](=O)[O-])c1C
i,Cc1cc(C)n(-c2nc(CCNC(=O)C3CC=CCC3)cs2)n1 (configuration not stated)
i,CCOc1ccc(-n2nnc3c(=O)n(Cc4nc(-c5ccccc5Cl)no4)cnc32)cc1
i,O=C(CN1CC(c2nc(-c3cccnc3)no2)C1)NCc1ccco1
i,CN(CCO)CC1COCCN1C(=O)c1cnn(-c2ccccc2)n1 (configuration not stated)
i,O=C1CC(NC(=O)c2cnn(-c3ccccc3)n2)CN1 (configuration not stated)
i,Cc1noc(-c2ccc(=O)n(Cc3cccc(C(F)(F)F)c3)c2)n1
i,O=C(c1ccc(Cl)s1)N1CCC2(CC1)OCCCO2
i,Cc1ccc(-c2cc3c(=O)n(CC(=O)Nc4ccccc4F)ncn3n2)cc1C
i,Cc1ccc2c(CCl)cc(=O)oc2c1
i,CS(=O)(=O)N1CCC(CNS(=O)(=O)Cc2ccc(C(F)(F)F)cc2)CC1
i,COc1ccc(NC(=O)CCCOc2ccccc2OC)c(OC)c1
i,O=C1CC(c2nc(C3CC3)no2)CN1Cc1ccccc1 (configuration not stated)
i,CC(C)C(=O)Nc1ccc(S(=O)(=O)NCCn2ncccc2=O)cc1
i,COc1ccc(F)cc1S(=O)(=O)NCCn1ncc2c(N3CCOCC3)ncnc21
i,Cc1ccc(S(=O)(=O)c2cnc(=S)[nH]c2N)cc1
i,Cn1cc(C(=O)NCCC2=CCCCC2)c(S(=O)(=O)N2CCCCC2)n1
i,CCSc1ccccc1C(=O)N1CCN(CC(O)c2cccs2)CC1 (configuration not stated)
i,CCC(C(=O)NCCc1nc(C2CC2)cc(C(F)(F)F)n1)c1ccccc1 (configuration not stated)
i,COc1ccccc1N1CCN(c2nccnc2SCC(=O)Nc2ccc(Cl)cc2)CC1
i,O=C(NCC1(CO)CC1)c1nc2ccccc2s1
i,CN1C2CCC1CC(OC(c1ccccc1)c1ccccc1)C2 (configuration not stated)
i,O=C(c1ccccc1C(F)(F)F)N1CCN(C(=O)C2CC2c2ccc(F)cc2)CC1 (configuration not stated)
i,COc1ccc2c(c1)c(CC(=O)NCCc1ccccc1)c(C)n2C(=O)c1ccc(Cl)cc1
i,COc1ccccc1-c1coc2cc(OCC(N)=O)ccc2c1=O
i,O=C(Nc1nnc(-c2cccs2)o1)c1ccc(F)cc1
i,CCOC(=O)N1CCC(Oc2cnccn2)CC1
i,COc1ccccc1CCN=C1NC(=O)/C(=C/c2ccc3ncccc3c2)S1

Copied from the results shown, two compounds:
GIRK2 activ,canonical_smiles
i,Cn1cc(C(=O)NCCC2=CCCCC2)c(S(=O)(=O)N2CCCCC2)n1
i,CCSc1ccccc1C(=O)N1CCN(CC(O)c2cccs2)CC1 (configuration not stated)

The list goes on:
GIRK2 activ,canonical_smiles
i,CCc1cc2c(=O)c(-c3ccc4c(c3)OCCO4)coc2cc1OCC(=O)OC(C)C
i,COC(=O)c1ccc(NC(=O)Cn2ncn3nc(-c4ccc(C)c(C)c4)cc3c2=O)cc1
i,COc1ccc(OC)c2sc(N3CCN(C(=O)NCc4ccc(F)cc4)CC3)nc12
i,O=S(=O)(Cc1ccc(F)cc1)NCc1cc(-c2cccs2)n(C2CCCC2)n1
i,O=C(Nc1nc2ccc(F)cc2s1)c1cc(S(=O)(=O)N2CCOCC2)ccc1O
i,CSc1nc2ccc(NC(=O)Nc3c(F)cccc3F)cc2s1
i,COCC(=O)NCCN1CCN(c2ccccc2F)CC1
i,CCOc1ccc(N2CCN(CC(=O)NC34CC5CC(CC(C5)C3)C4)C2=O)cc1
i,CSc1ccc(-c2noc(-c3nnn(Cc4nc(-c5ccc(C)cc5)oc4C)c3C)n2)cc1
i,Cc1cc(C(=O)Nc2nc3c(s2)CN(C(=O)c2snnc2C)CC3)no1
i,CC(C)Nc1nc2c(S(=O)(=O)c3cccc(Cl)c3)nnn2c2ccsc12
i,CCCCCCCC/C=C\CCCCCCCC(=O)OCC

An excerpt of these results, tab-delimited:
SMILES	GIRK2 activ
Cn1cc(C(=O)NCCC2=CCCCC2)c(S(=O)(=O)N2CCCCC2)n1	i
CCSc1ccccc1C(=O)N1CCN(CC(O)c2cccs2)CC1 (configuration not stated)	i
CCC(C(=O)NCCc1nc(C2CC2)cc(C(F)(F)F)n1)c1ccccc1 (configuration not stated)	i
COc1ccccc1N1CCN(c2nccnc2SCC(=O)Nc2ccc(Cl)cc2)CC1	i
O=C(NCC1(CO)CC1)c1nc2ccccc2s1	i
CN1C2CCC1CC(OC(c1ccccc1)c1ccccc1)C2 (configuration not stated)	i
O=C(c1ccccc1C(F)(F)F)N1CCN(C(=O)C2CC2c2ccc(F)cc2)CC1 (configuration not stated)	i
COc1ccc2c(c1)c(CC(=O)NCCc1ccccc1)c(C)n2C(=O)c1ccc(Cl)cc1	i
COc1ccccc1-c1coc2cc(OCC(N)=O)ccc2c1=O	i
O=C(Nc1nnc(-c2cccs2)o1)c1ccc(F)cc1	i
CCOC(=O)N1CCC(Oc2cnccn2)CC1	i
COc1ccccc1CCN=C1NC(=O)/C(=C/c2ccc3ncccc3c2)S1	i
CCc1cc2c(=O)c(-c3ccc4c(c3)OCCO4)coc2cc1OCC(=O)OC(C)C	i
COC(=O)c1ccc(NC(=O)Cn2ncn3nc(-c4ccc(C)c(C)c4)cc3c2=O)cc1	i
COc1ccc(OC)c2sc(N3CCN(C(=O)NCc4ccc(F)cc4)CC3)nc12	i
O=S(=O)(Cc1ccc(F)cc1)NCc1cc(-c2cccs2)n(C2CCCC2)n1	i
O=C(Nc1nc2ccc(F)cc2s1)c1cc(S(=O)(=O)N2CCOCC2)ccc1O	i
CSc1nc2ccc(NC(=O)Nc3c(F)cccc3F)cc2s1	i
COCC(=O)NCCN1CCN(c2ccccc2F)CC1	i
CCOc1ccc(N2CCN(CC(=O)NC34CC5CC(CC(C5)C3)C4)C2=O)cc1	i
CSc1ccc(-c2noc(-c3nnn(Cc4nc(-c5ccc(C)cc5)oc4C)c3C)n2)cc1	i

Additional results
GIRK2 activ,canonical_smiles
i,O=C(c1cc2ccccc2oc1=O)N1CCCC(c2nnc(-c3cccs3)o2)C1 (configuration not stated)
i,CN1CCN(c2nc3c(c(=O)n(C)c(=O)n3C)n2CC(O)COc2ccccc2)CC1 (configuration not stated)
i,COC(=O)c1ccccc1C(=O)N1CCCC(c2nnc(-c3ccccc3F)s2)C1 (configuration not stated)
i,O=C(CCC1CCCC1)NC1CCN(C(=O)c2cn[nH]c2-c2ccc(Cl)cc2)CC1
i,O=C(Nc1ncc(CN2CCCCC2)s1)c1ccccc1
i,Cc1oc2cc(O)ccc2c(=O)c1-c1ccc(F)cc1
i,CC1=C(C(N)=O)C(c2cccc(Oc3ccccc3)c2)n2ncnc2N1 (configuration not stated)
i,CCOC(=O)Cn1c(C2CC(=O)N(c3ccc(C)cc3)C2)nc2ccccc21 (configuration not stated)
i,COc1ccc2c(c1)C=C(C(=O)Nc1ccc(OC)cc1OC)C=CO2
i,COc1ccc(-c2ccc(=O)n(CCNS(=O)(=O)c3ccc(Br)cc3)n2)cc1
i,COc1ccc(SCC2CCN(C(=O)c3ccc4nsnc4c3)CC2)cc1
i,O=C(Nc1cccnc1)C1CCCN(c2ccc(-c3ccc(Cl)cc3)nn2)C1 (configuration not stated)
i,O=C(/C=C/c1ccccc1)NCC1CCN(S(=O)(=O)c2cccnc2)CC1
i,O=C(NCC1CCCCC1)C1CCCN(c2ccc(-c3ccccc3)nn2)C1 (configuration not stated)
i,COc1cccc(-n2c(=O)c3sccc3n(Cc3nc(-c4ccc(OC(C)C)cc4)no3)c2=O)c1
i,COc1ccc(N2CC(C)Cn3c2nc2c3c(=O)n(Cc3cccc(C)c3)c(=O)n2C)cc1 (configuration not stated)
i,Cc1cccc(N2CC(c3noc(-c4ccc[nH]c4=O)n3)CC2=O)c1 (configuration not stated)
i,COC(=O)c1ccc(Oc2coc3c4c(ccc3c2=O)OCN(CCc2cccs2)C4)cc1
i,COc1cc(/C=C2/SC(=S)N(c3ccc4c(c3)OCO4)C2=O)ccc1O
i,CC(=O)Nc1ccc(NC(=O)CSc2nccc(N3CCCC3)n2)cc1
i,COc1ccc(C(=O)NCCc2c[nH]c3ccccc23)nn1
i,Cc1cc(C)c(NC(=O)CSc2ncnc3nc(N4CCc5ccccc5C4)sc23)c(C)c1
i,Cc1nnc2ccc(S(=O)(=O)N(Cc3cccc(F)c3)c3cc(F)cc(F)c3)cn12
i,CCOCCn1c(=O)c2c(nc3n2CC(C)CN3c2cccc(C)c2)n(C)c1=O (configuration not stated)
i,Cc1cc(C)n(CCNC(=O)c2ccco2)n1
i,Cn1nc(CNC(=O)c2ccc(Oc3ccccc3)cc2)cc1-c1ccncc1
i,COc1ccc(Cl)cc1NC(=O)CN1CCc2nc(NC(C)=O)sc2C1
i,CCOc1ccccc1-n1c(C)c(C)n2c3c(=O)n(CCN4CCCCC4)c(=O)n(C)c3nc12
i,NC(=O)C1CCN(C(=O)Cn2nc(C(=O)N3CCOCC3)cc2-c2cccs2)CC1
i,Cc1cccc2sc(OC3CN(C(=O)c4cnn(-c5ccccc5)n4)C3)nc12
i,O=C(NCC#CCN1CCCC1)Nc1cccc(C(F)(F)F)c1
i,O=C(Nc1nnc(Cc2ccccc2)o1)c1ccc2nsnc2c1
i,C/C=C/c1ccc(OCC(O)CN2CCN(Cc3ccc4c(c3)OCO4)CC2)c(OC)c1 (configuration not stated)
i,CC1CCC2(CC1)NC(=O)N(CC(=O)NCCc1ccccc1)C2=O (configuration not stated)
i,COc1ccccc1NC(=O)c1nnn(-c2cc(C)ccc2Cl)c1C
i,N#Cc1ccc(OC2CCN(C(=O)/C=C/c3cccs3)CC2)nc1
i,O=c1c2cccnc2nc(SCc2ccccc2F)n1Cc1ccc(F)cc1
i,CCOc1ccc(C2C(=C(O)c3ccccc3)C(=O)C(=O)N2Cc2cccnc2)cc1OC (configuration not stated)
i,CC(O)CN1CCN(C(=O)c2nc3ccccc3s2)CC1 (configuration not stated)
i,Cc1cc(NS(=O)(=O)c2ccc(NC(=O)Cn3nc(-c4ccco4)ccc3=O)cc2)nc(C)n1
i,CCOc1ccc(S(=O)(=O)c2cnc(SCC(=O)Nc3ccc(C)c(C)c3)[nH]c2=O)cc1
i,CC(=O)O[C@@H](CO[C@@H]1O[C@H](CO)[C@H](O)[C@H](O)[C@H]1O)[C@]1(C)C=C2CC[C@@H]3C(C)(C)[C@@H](O)CC[C@@]3(C)[C@@H]2CC1
i,COc1ccccc1OCC(=O)NCc1n[nH]c(=O)c2ccccc12
i,COc1cc(NC(=O)Nc2cc(N3CCCC3)ncn2)cc(OC)c1
i,Cc1ccc(Oc2ccc(NS(=O)(=O)c3ccc4c(c3)OCCO4)cc2)nn1
i,COc1ccc(S(=O)(=O)N2CCCCC2CCNC(=O)C(=O)Nc2ccccc2C#N)cc1 (configuration not stated)
i,O=C(C1CCN(c2ncccc2-c2nc(-c3ccccc3)no2)CC1)N1CCC2(CC1)OCCO2
i,Cc1ccc(Cn2nnc3c(=O)n(Cc4nc(-c5ccc(C(F)(F)F)cc5)no4)cnc32)cc1
i,O=C(C1CCCC1)N1CCN(CC(O)C2CC2)CC1 (configuration not stated)
i,C=CCNC(=O)c1cc2cc(Cl)ccc2oc1=O
i,O=c1[nH]c(=S)c2c(n1CCCN1CCOCC1)CCC2
i,COCCn1c(SCC(=O)c2ccc(Cl)cc2)nc2cc(C(=O)NCC(C)C)ccc2c1=O
i,O=C(Cc1ccccc1Cl)Nc1cc(-n2cccn2)ncn1
i,CC(=O)Nc1ccc(SCCCC(=O)N2CCN(CCc3ccccc3)CC2)nn1
i,CCCCN1C(SCC(=O)Nc2c(C)cccc2C)=NS(=O)(=O)c2ccccc21
i,CCOc1ccc(NC(=O)Nc2cnc(N3CCOCC3)nc2)cc1
i,COc1cccc(NC(=O)CN2N=NC3C(=O)N(c4ccc(Cl)cc4)C(=O)C32)c1 (configuration not stated)
i,O=C(CN1CCC(COCc2ccc(Cl)cc2)CC1)N1CCCC1
i,C=CCOCC(O)Cn1c(NCC)nc2c1c(=O)[nH]c(=O)n2C (configuration not stated)
i,Cc1ccc(N2CC(NC(=O)c3cc4ccccc4o3)CC2=O)cc1C (configuration not stated)

(further entries)
GIRK2 activ,canonical_smiles
i,Cc1ccc(NC(=O)CSc2ncc(S(=O)(=O)c3ccc(C)cc3C)c(=O)[nH]2)cc1
i,CS(=O)(=O)N1CCC(Nc2ncc(C(=O)c3c(F)cccc3F)c(N)n2)CC1
i,COc1cc2c(cc1OC)[C@]1(O)C(=O)c3ccc(O)c(CC=C(C)C)c3O[C@@H]1CO2
i,O=C(Nc1cccc2ccc(-n3cccc3)nc12)c1ccc(F)c(F)c1
i,CCn1c(=N)c(S(=O)(=O)c2ccc(C)c(C)c2)cc2c(=O)n3ccccc3nc21
i,O=c1[nH]c(=O)n(C2CC(O)C(CO)O2)cc1I (configuration not stated)
i,O=C(Cn1c(=O)nc(-c2ccccc2)c2cc(Cl)ccc21)Nc1ccc2c(c1)OCO2
i,COc1cccc(CNC(=O)NC2(c3nc(C)no3)CCCCC2)c1
i,Cc1ccc(C(C)C)c(OCC(O)Cn2c(N3CCOCC3)nc3c2c(=O)[nH]c(=O)n3C)c1 (configuration not stated)
i,CCCn1c(=O)c2cc(Cl)ccc2n2c(SCC(=O)Nc3ccc(OC)cc3)nnc12
i,O=C(NCc1ccccc1)N1CC(c2nc(-c3cnccn3)no2)C1
i,CCCc1nnsc1C(=O)Nc1nc2ccc3sc(C)nc3c2s1
i,Cc1onc(-c2ccccc2Cl)c1C(=O)NCCn1ncccc1=O
i,CCOC(=O)c1csc(NC(=O)C2CCCN(c3ccc(-c4ccccc4)nn3)C2)n1 (configuration not stated)

An excerpt; count on the stated rates, not on these rows.
